ClpP mod – qHTS Assay for Activators of ClpP; ATP-dependent Clp protease proteolytic subunit (Bacillus subtilis (strain 168)), P80244; purified B. subtilis ClpP, FRET peptide cleavage, 20 min; Potency, µM (doses to about 57.5 µM), without a hit: top-dose activity change, negative = active; actives 1.9% (n = 340,000); AID 651965, 2013; active = well fitted falling curve with a large enough effect; inconclusive = small, poorly fitted or top-dose-only effect; inactive = no such curve, though single readings can be large or run the other way; also: potency is read from the fitted curve at half-maximal effect; the source files actives as falling curves though it sought activators and does not explain the sign; nearly all actives have a fitted effect of over 65% in size; many hits overshoot -100%
Target sequence (P80244 whole entry, looked up): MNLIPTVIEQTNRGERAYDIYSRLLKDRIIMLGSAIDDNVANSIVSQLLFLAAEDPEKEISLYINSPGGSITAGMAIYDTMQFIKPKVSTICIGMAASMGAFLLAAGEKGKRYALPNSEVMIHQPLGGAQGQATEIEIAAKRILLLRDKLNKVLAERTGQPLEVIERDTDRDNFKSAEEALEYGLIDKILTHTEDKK
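Purified B. subtilis ClpP, 10 microg/mL final in Tris/HCl pH8 with KCl, BSA, glycerol and Tween-20, cleaved an Abz/nitrotyrosine-quenched decapeptide. Fluorescence (ex 320, em 430) was read at 0 and 20 min at room temperature. Delta was normalized to 5.8 microM ADEP and DMSO/no-enzyme controls.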
gsp ag – agonists of gsp mutant (McCune-Albright syndrome). gsp mutant cells, cAMP HTRF, 30 min; control for the full effect not named in the record. actives 0.13% (n = 340,000). Potency, µM (titrated, usually from 76.9 µM), for the others: at the highest dose activation (cAMP increase), most hits filed as activators; active = well fitted activation curve with a large enough effect; inconclusive = small, poorly fitted or top-dose-only effect, or another doubt; inactive = no such curve, though single readings can be large or run the other way; cell line not stated here;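 also: phosphodiesterase inhibitor Ro 20-1724 added with compounds to block cAMP breakdown; potency is read from the fitted curve at half-maximal effect; nearly all actives have a fitted effect of over 60% in size; about a fifth of the inactives were tested at one dose only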
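Cells stably selected in G418 were plated at 2000/well, grown 16-24 hr, then given compounds in DMSO with the PDE inhibitor […] (300 uM solution added) for 30 min at 37C; cAMP was read by HTRF.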
Menin MLL FP FL – displaces fluorescein MLL peptide from human menin; 290,000 tested, under 10 active; Fluorescence polarization, fluorescein-MLL peptide displacement from menin; FP activity change, % at 61.4 µM; inconclusive = falling polarisation curve, or a change in total fluorescence; inactive = total fluorescence flat and polarisation flat or rising; no compound was filed as active; the % refers to the polarisation; negative = inhibition;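 also: % of control where 0% means no effect; inhibitors lower the polarisation; unlabelled MLL peptide was the positive control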
gsp antagonist – gsp mutant antagonism; gsp-mutant cells, cAMP HTRF, 30 min; control for the full effect not named in the record; Potency, µM (titrated, usually from 76.9 µM), for the others: at the top dose activity change, negative = inhibition, hits mostly inhibitors; actives 0.4% (n = 340,000); AID 624288; active = falling curve of any shape with a large fitted effect; inconclusive = falling curve, mostly with a smaller effect; inactive = flat or rising curve; cell line not stated here;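 also: intracellular cAMP measured with PDE inhibitor Ro 20-1724 present during compound exposure; potency is read from the fitted curve at half-maximal effect; % is scaled to controls: 0 for no effect and ±100 for the full control effect; nearly all actives have a fitted effect of over 65% in size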
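HTRF cAMP measurement after 30 min RT detection following 30 min, 37C compound treatment alongside […] (added as 300 uM solution) in G418-selected cells seeded at 2000/well and grown 16–24 h.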
TRPML1 inh – human mucolipin-1 channel inhibition | Q9GZU1 | TRPML1-inducible cells, Ca2+ dye fluorescence, FDSS; stronger effect = lower value; inhibition of EC80 agonist-evoked calcium signal | activity change, negative = inhibition, % (no concentration beside the values) | actives 0.02% (n = 390,000); in the data active means activity change below about -50%; inconclusive means about -30% to -50%; inactive means above about -30%;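 also: stimulus is agonist 54-4 at its EC80 concentration; % is scaled to controls: 0 for no effect and ±100 for the full control effect; compound concentration not given in the record; the text of the record puts the active cut at -80%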
Target sequence (Q9GZU1 whole entry, looked up): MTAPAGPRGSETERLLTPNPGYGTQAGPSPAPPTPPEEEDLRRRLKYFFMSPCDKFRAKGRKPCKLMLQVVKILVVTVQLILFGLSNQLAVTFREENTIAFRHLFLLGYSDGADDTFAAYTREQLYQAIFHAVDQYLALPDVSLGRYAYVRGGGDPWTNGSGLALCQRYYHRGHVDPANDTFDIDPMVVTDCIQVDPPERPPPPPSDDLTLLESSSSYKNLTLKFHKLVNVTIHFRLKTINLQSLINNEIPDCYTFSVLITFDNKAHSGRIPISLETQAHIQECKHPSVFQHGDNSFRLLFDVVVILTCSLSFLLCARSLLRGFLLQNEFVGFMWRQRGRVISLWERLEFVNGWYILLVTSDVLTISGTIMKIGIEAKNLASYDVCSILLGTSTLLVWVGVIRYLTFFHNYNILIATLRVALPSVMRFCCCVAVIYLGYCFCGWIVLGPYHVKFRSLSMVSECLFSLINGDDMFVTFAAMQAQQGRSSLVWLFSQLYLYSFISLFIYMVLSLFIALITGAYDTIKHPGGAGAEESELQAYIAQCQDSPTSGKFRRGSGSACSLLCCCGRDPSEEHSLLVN
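Tet-induced TRPML1-DL cells loaded with Ca8 no-wash calcium dye were read kinetically on FDSS. Compound addition was followed by EC80 agonist 54-4 (4 uM final); inhibition was read over 110 s.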
Sfp PPTase inh – Sfp phosphopantetheinyl transferase inhibition | Q9F4F7 | Biochemical Sfp PPTase activity, qHTS | Potency, µM, for the others: max response, negative = inhibition, most hits filed as inhibitors | actives 3.5% (n = 310,000); active = well fitted inhibition curve with a large enough effect; inconclusive = small, poorly fitted or top-dose-only effect, or another doubt; inactive = no such curve, though single readings can be large or run the other way;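 also: the enzyme is Sfp with the accession as filed and its product quenches rhodamine fluorescence; potency is read from the fitted curve at half-maximal effect; 0% = enzyme reaction without inhibitor and -100% = no enzyme wells; top concentration of the series not given in the record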
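Step 1, compound plus 15 nM Sfp-PPTase, 15 min, room temperature. Step 2, add rhodamine-CoA (5 uM) and BHQ-2-YbbR (12.5 uM). Step 3, read 525/598 nm fluorescence at 0 and 30 min.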
TRPV1 potentiator – potentiators of human vanilloid receptor 1 (TRPV1); actives 0.02% (n = 320,000); potentiation, % at 8.33 µM; Q8NER1; AID 540277; TRPV1-expressing cells, Fluo-8 calcium influx, capsaicin EC20 potentiation; host cell line not named in the record; control for the full effect not named in the record; active means potentiation above 80%; inconclusive means 30% to 80%; inactive means below 30%; also: 0% is about no effect
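TRPV1-expressing cells were cultured overnight at 35.5C and loaded with Fluo-8 calcium dye for 40 to 90 min at room temperature. After a 10 s baseline, compound was added and calcium influx was read kinetically for 3 min (ex 480/em 520 nm).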
The depositor's hits bear a star; ? = inconclusive; nt = no result given; & = joins results of further samples; [ ] = dose if it differs, or a comment.

1: CC(C)N1C(=O)S/C(=C/c2ccccc2OCc2ccc(C(=O)O)cc2)C1=O
2: COCCN(Cc1ccccc1)C(=O)c1cccc(S(=O)(=O)N2CCN(c3ccc(F)cc3)CC2)c1
3: Cc1sc2nc(CSc3ccccc3)nc(N3CCC(C(N)=O)CC3)c2c1C
4: O=C(CCSc1nc(-c2ccc3c(c2)OCO3)cc(C(F)(F)F)n1)NCc1ccco1
5: CNC(=S)NNC(=O)c1oc2nc(-c3ccccc3)cc(-c3ccco3)c2c1N
6: COc1ccc(OC)c(-c2nnc(SCC(=O)N3CCOCC3)o2)c1
7: CCOC(=O)[C@@H]1[C@H]2COc3cc(OC)ccc3[C@H]2N2C(=O)N(c3cccc(F)c3)C(=O)[C@]12C
8: S=C(NCC1CCCO1)Nc1cccc(Cl)c1 (stereo not drawn)
compound no.	1	2	3	4	5	6	7	8
ClpP mod	nt	1.0%	-1.0%	4.2%	-13%	-17%	-3.4%	0.9%
gsp ag	20%	-6%	-62%[inhibitor]	16%	21%	-17%	20%	17%[15.4 µM]
Menin MLL FP FL	-0.6	nt	0.2	5.5	?	3.2	nt	-2.7
gsp antagonist	-18%	-16%	?	-11%	1%	-17%[15.4 µM]	-12%	-10%
TRPML1 inh	-3	2	14	20	31	-18	5	-9
Sfp PPTase inh	-3%	nt	-9%	40µM*	13µM*	24%	nt	7%
TRPV1 potentiator	-2	-11	-2	0	-10	6	nt	4

9: COc1ccc(NC(=O)C2c3cc(OC)c(OC)cc3C(=O)N(C)C2c2cccnc2)cc1OC (stereo not drawn)
10: O=C(O)CCC(=O)NNc1ncnc2ccccc12
11: C=CC[n+]1c(-c2ccc(OCC)cc2)csc1NNC(=O)Nc1ccccc1
12: COc1cc(C(c2c(C)[nH][nH]c2=O)c2c(C)[nH][nH]c2=O)ccc1OC(C)C
13: O=C(Cc1cccs1)N1CCN(c2cccc(Cl)c2)CC1
14: CC1CCN(C(=O)COC(=O)C2CCN(S(=O)(=O)c3ccc4c(c3)OCCO4)CC2)CC1
15: CCc1ccc(NC(=S)N(CCC(C)C)C2CCN(C(C)=O)CC2)cc1
16: CC(N=C1CC(C)(C)CC(=O)/C1=C(/O)CCCN1C(=O)c2ccccc2C1=O)C(=O)O (stereo not drawn)
compound no.	9	10	11	12	13	14	15	16
ClpP mod	-1.1%	nt	0.0%	4.8%	nt	1.3%	nt	nt
gsp ag	23%	16%	-17%	-1%	11%	-4%[15.4 µM]	-3%	?
Menin MLL FP FL	0.3	-0.9	7.6	1.7	-0.9	nt	-0.5	1.7
gsp antagonist	-1%	1%	-27%	19%	-1%	-10%	-1%	-4%
TRPML1 inh	16	3	1	23	-11	6	2	18
Sfp PPTase inh	10%	56µM*	-17%	0%	16%	nt	-14%	-1%
TRPV1 potentiator	9	-4	?	-9	0	-12	2	-10

17: COc1cccc(OC)c1C(=O)Nn1c(-c2cccc(C)c2)nc2ccccc2c1=O
18: O=C1CCC(=O)N1CNc1cccnc1
19: N#Cc1ccc(C(=O)NC2CCCCCCC2)cc1
20: Cc1csc(NC(=O)Nc2ccc(Cl)cc2)n1
21: OCCNC(=S)Nc1cccc(Cl)c1Cl
22: COc1cc(/C=C2\SC(=S)N(CCC(=O)N3CCCCC3)C2=O)cc(OC)c1OC
23: COc1cc(/C=N/Nc2nc(Nc3ccccc3)nc(N3CCOCC3)n2)ccc1OC(=O)c1ccco1
24: COc1ccc(CC(=O)Nc2ccc(F)c(F)c2F)cc1S(=O)(=O)N1CCOCC1
compound no.	17	18	19	20	21	22	23	24
ClpP mod	nt	-5.1%	nt	1.7%	nt	-1.4%	-0.2%	0.7%
gsp ag	1%[15.4 µM]	?	4%[15.4 µM]	2%	-9%[15.4 µM]	17%[15.4 µM]	29%	-2%[15.4 µM]
Menin MLL FP FL	1.4	0.4	-1.5	-1.2	18	7.3	0.7	nt
gsp antagonist	-10%	4%	12%	1%	11%	-33%	-23%	11%
TRPML1 inh	45	41	-7	36	5	4	32	46
Sfp PPTase inh	20%	9%	-10%	-16%	3%	-15%	13%	nt
TRPV1 potentiator	-2	-8	-4	5	nt	5	-2	-9

25: Cc1c(OCC(=O)N2CCC(C(=O)O)CC2)ccc2c3c(c(=O)oc12)CCC3
26: O=C(N/N=C/c1cccs1)c1cccc(S(=O)(=O)Nc2ccc(Cl)cc2)c1
27: Cc1cc(C)nc(/N=C/c2c(O)n(C)c(=O)n(C)c2=O)n1
28: CN1N=C(C(C)(C)C)CSC1=Nc1ccccc1
29: COc1ccc(-c2ccc3c(N)c(C(=O)c4ccc(OC)c(OC)c4)sc3n2)cc1
30: COc1ccc(-c2c(C)nc3c(-c4ccccn4)cnn3c2N)cc1
31: CCc1ccc(N2CC(C(=O)Nc3nccs3)CC2=O)cc1 (stereo not drawn)
32: COc1cc(OC)cc(C(=O)NCc2ccc3c(c2)OCO3)c1
compound no.	25	26	27	28	29	30	31	32
ClpP mod	4.1%	nt	nt	nt	-11%&2.2%	-1.9%	-1.1%	-9.7%
gsp ag	nt	0%[15.4 µM]	nt	14%[15.4 µM]	25%	28%[15.4 µM]	-13%	19%[15.4 µM]
Menin MLL FP FL	3.7	6.5	-7.5	-1.9	?	2.8	-1.1	-3.8
gsp antagonist	8%	-4%	nt	2%	-8%	6%	5%	0%
TRPML1 inh	nt	6	nt	-14	17&52	11	-8	-19
Sfp PPTase inh	18%	19%	10%	-4%	-16%	9%	-6%	10%
TRPV1 potentiator	-6	-11	27	5	5	-2	28	-12

33: O=C1c2ccccc2C(=O)C1c1ccnc2ccccc12
34: CC(OC(=O)CCCc1nc2ccccc2s1)C(=O)NC(N)=O (stereo not drawn)
35: O=C(OCc1nnc(-c2ccccc2)o1)c1cc([N+](=O)[O-])ccc1Cl
36: COc1ccc(Cc2nnc(NC(=O)c3ccccc3F)s2)cc1
37: CC#CC(=O)N1CCCC(Cc2cccc(OC)c2)(C(=O)OCC)C1 (stereo not drawn)
38: Cn1c(SCC(=O)c2ccc3c(c2)OCO3)nnc1C1COc2ccccc2O1 (stereo not drawn)
39: COc1ccc(-c2c(N)cnc(C(=O)O)c2C)c(OCc2ccccc2)c1OC
40: CN1CCN(C(=O)c2ccccc2NC(=O)COc2ccccc2Cl)CC1
compound no.	33	34	35	36	37	38	39	40
ClpP mod	0.8%	nt	nt	-2.2%	1.1%	-1.6%	4.5%	-0.6%
gsp ag	-18%	-6%[15.4 µM]	22%[15.4 µM]	18%[15.4 µM]	-8%	-34%	7%	-6%
Menin MLL FP FL	-1.3	0.8	-1.8	3.6	0.0	4.8	nt	nt
gsp antagonist	-1%	4%	-5%	-14%	-4%	-7%	nt	11%
TRPML1 inh	26	-15	-13	-14	-3	-1	-15	2
Sfp PPTase inh	15%	21%	?	-7%	-8%	-21%	nt	18%
TRPV1 potentiator	-3	-14	-12	?	-7	5	nt	?

41: CNc1nc(-c2ccccc2)nc(-c2ccc(OC)cc2)c1C#N
42: Cc1c(C(=O)O)cccc1-n1c(C)cc(/C=N/NC(=O)c2cc3ccccc3o2)c1C
43: Cn1cnnc1Sc1cc(N2CCN(S(=O)(=O)c3ccccc3)CC2)ccc1[N+](=O)[O-]
44: O=C(CNc1cc(S(=O)(=O)N2CCCC2)ccc1OCC(F)(F)F)Nc1cccc(C(F)(F)F)c1
45: O=C(NNS(=O)(=O)c1ccccc1)C1CCN(S(=O)(=O)c2ccc(Cl)cc2)CC1
46: Cc1ccc(NC(=O)C2C3C=CC4(CN(Cc5cccnc5)C(=O)C24)O3)cc1 (stereo not drawn)
47: c1ccc(N2CCN(c3nc4ccccc4n4nnnc34)CC2)cc1
48: COC(=O)c1ccc(NC(=S)NCC2CC2)cc1
compound no.	41	42	43	44	45	46	47	48
ClpP mod	nt	-5.5%	1.1%	-24%	0.1%	0.3%	-15%	2.2%
gsp ag	7%	-54%[inhibitor]	-10%	-37%[inhibitor]	-30%[inhibitor]	?	?	-32%[inhibitor]
Menin MLL FP FL	-3.9	10.0	-1.5	8.2	0.9	-0.2	?	0.0
gsp antagonist	1%	1%	-8%	-10%	-13%	7%	-8%	-4%
TRPML1 inh	-10	10	5	8	-25	-5	13	-9
Sfp PPTase inh	20%	13%	2%	33%[activator]	2%	25%	-17%	-12%
TRPV1 potentiator	26	0	-13	17	2	-5	4	-19

Quoted at random: four compounds from above.
47: c1ccc(N2CCN(c3nc4ccccc4n4nnnc34)CC2)cc1
25: Cc1c(OCC(=O)N2CCC(C(=O)O)CC2)ccc2c3c(c(=O)oc12)CCC3
44: O=C(CNc1cc(S(=O)(=O)N2CCCC2)ccc1OCC(F)(F)F)Nc1cccc(C(F)(F)F)c1
11: C=CC[n+]1c(-c2ccc(OCC)cc2)csc1NNC(=O)Nc1ccccc1
compound no.	47	25	44	11
ClpP mod	-15%	4.1%	-24%	0.0%
gsp ag	?	nt	-37%[inhibitor]	-17%
Menin MLL FP FL	?	3.7	8.2	7.6
gsp antagonist	-8%	8%	-10%	-27%
TRPML1 inh	13	nt	8	1
Sfp PPTase inh	-17%	18%	33%[activator]	-17%
TRPV1 potentiator	4	-6	17	?

(next part)
49: CNc1nc(-c2ccccc2)nnc1C(F)(F)F
50: CCOC(=O)C1CCN(C(=O)c2ccc(S(=O)(=O)Nc3ccccc3OC)cc2)CC1
51: COc1ccc(CCN2CC(C(=O)N(C)Cc3ccc(C)o3)CCC2=O)cc1 (stereo not drawn)
52: Cc1cc(Nc2nc3c(c(=O)n(C)c(=O)n3C)n2C)n(-c2ccc(Cl)cc2)n1
compound no.	49	50	51	52
ClpP mod	-0.6%	-0.1%	-1.8%	-19%
gsp ag	-30%	-47%[inhibitor]	-10%	-14%
Menin MLL FP FL	0.2	nt	3.7	0.2
gsp antagonist	0%	-18%	-1%	4%
TRPML1 inh	-15	0	12	6
Sfp PPTase inh	11%	nt	22µM*	-7%
TRPV1 potentiator	4	0	30	2

Screening data deposited in PubChem by National Center for Advancing Translational Sciences (NCATS).
